Assay outcomes from PubChem.
Mtb growth – M. tuberculosis H37Rv growth inhibitors, H37Rv strain (AID 1626). hit rate 0.95% among 220,000. one-dose inhibition, % at 10 µM; IC50 in µM for titrated hits. M. tuberculosis H37Rv growth inhibition; higher % means a stronger effect;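 active = confirmed in a dose series; inconclusive = inhibition above 80% but not taken into the dose series; inactive = below 80% or under 30% at every dose of the series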;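 note: bacteria incubated seven days before Alamar blue readout; 0% = bacteria only wells and 100% = bacteria with antibiotic wells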
YopH inh – YopH (Yersinia) phosphatase inhibition; fluorescence Ex485/Em525; inhibition, %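 (about 10 µM by stock and volumes)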; hit rate 0.16% among 140,000;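 active = inhibition of 50% or more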;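 note: controls were vehicle for no effect and minimum signal wells for full effect; inactives centre near -20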
Mtb betalactam – beta-lactam sensitization of Mtb H37Rv | M. tuberculosis H37Rv growth with meropenem, percent inhibition; hits of this screen are not shown here | AID 434955 | inhibition, % at 25 µM | hit rate 0.27% among 330,000;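 active = about 74% or more and at least 40 points above the plate without the antibiotic, then above 30% in a dose series; inconclusive = first-round hits that could not be retested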;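 note: growth measured after seven days incubation then overnight dye step; 0% = bacteria only wells and 100% = bacteria with antibiotic; twin plates without the antibiotic show which effects depend on it; some results filed as inactive read as strong as hits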
Arbovirus inh – antivirals against arbovirus infection; arbovirus infection cell-based antiviral screen; inhibition, % at 10 µM; hit rate 0.37% among 200,000; AID 1251;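 active = inhibition from about 30%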;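 note: bluetongue infection of BSR cells; cell survival read as ATP light after 72 h; 0% = infected wells without compound and 100% = uninfected wells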
RecA splice inh – blocks M. tuberculosis RecA intein splicing; P9WHJ3; inhibition, %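 (about 9 µM by stock and volumes)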; hit rate 0.75% among 290,000; AID 2221; cell-free RecA intein splicing, fluorescence; in the data active = inhibition above about 30%; inconclusive = no clear call, values can overlap the other calls;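 note: 0% = vehicle wells and 100% = reference inhibitor control wells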
Target sequence (P9WHJ3 whole entry, looked up, canonical isoform): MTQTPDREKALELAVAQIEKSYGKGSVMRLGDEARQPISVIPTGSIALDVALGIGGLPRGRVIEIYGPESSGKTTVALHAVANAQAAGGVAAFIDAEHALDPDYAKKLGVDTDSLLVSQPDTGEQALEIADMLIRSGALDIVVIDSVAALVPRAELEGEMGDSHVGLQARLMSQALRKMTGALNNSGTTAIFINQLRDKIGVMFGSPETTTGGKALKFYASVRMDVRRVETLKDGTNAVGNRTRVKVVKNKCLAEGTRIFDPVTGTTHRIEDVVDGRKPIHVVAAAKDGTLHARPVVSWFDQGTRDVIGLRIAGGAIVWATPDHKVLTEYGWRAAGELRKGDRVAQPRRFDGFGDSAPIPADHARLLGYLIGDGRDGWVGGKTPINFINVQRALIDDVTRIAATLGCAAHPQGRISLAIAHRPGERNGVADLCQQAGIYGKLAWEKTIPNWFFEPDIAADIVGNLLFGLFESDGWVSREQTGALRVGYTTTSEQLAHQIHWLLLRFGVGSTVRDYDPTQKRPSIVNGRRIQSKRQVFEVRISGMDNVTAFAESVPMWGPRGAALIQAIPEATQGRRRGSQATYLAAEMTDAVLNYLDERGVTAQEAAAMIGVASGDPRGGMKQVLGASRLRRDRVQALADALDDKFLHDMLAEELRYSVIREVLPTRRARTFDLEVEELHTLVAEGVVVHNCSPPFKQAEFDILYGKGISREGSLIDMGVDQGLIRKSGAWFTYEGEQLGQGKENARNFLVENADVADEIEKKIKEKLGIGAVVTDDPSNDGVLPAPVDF
Arbovirus inh repeat – second read-out of Arbovirus inh, no call of its own (marks repeat the call); inhibition, %; measured here: 10K subset replicate screen; many hits read low in the repeat;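 first of two repeat runs on a subset; 0% = infected and 100% = uninfected wells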
* marks the source's active call; other numbers are inactive results; ? = inconclusive; nt = not tested or not shown. This is a subset (hit frequency here may not be typical).

SMILES	Mtb growth	YopH inh	Mtb betalactam	Arbovirus inh	RecA splice inh	others
Oc1c(Cl)cc(Cl)cc1/C=N/Nc1ncc(Br)cn1	?	nt	28	-3	-2.3
COc1ccc(C(=O)NC2=Nc3ccccc3N=C(C)C2c2ccccc2)cc1 (configuration not stated)	7%	nt	3	nt	2.5
COc1ccc(-n2nnnc2SCc2nc3ccccc3s2)cc1	8%	-4	-4	-5	6.0
CC(C)(C)NC(=O)CN(C(=O)c1ccc(CN2CCOCC2)o1)c1ccc2c(c1)OCCO2	-2%	-33	-3	-2	3.2
O=C(CCc1ccc(O)c(O)c1)N/N=C/c1cc2c(cc1[N+](=O)[O-])OCO2	nt	nt	5	nt	-2.8
O=C(c1cc(COc2ccc(F)cc2Cl)on1)N1CCc2sccc2C1	nt	nt	-2	nt	0.7
CCN(CC)CCCN1C(=O)C(O)=C(C(=O)c2ccc(C)o2)C1c1ccc(C)o1 (configuration not stated)	-3%	-23	3	-5	-2.2
C=C(C)CSc1nc(N)c(C#N)c(-c2ccc(C)cc2)c1C#N	15%	-11	1	-4	1.5
Cc1cc(N2CCOCC2)n2ncc(-c3ccccc3)c2n1	11%	-12	2	1	-3.3
O=C(Nc1ccccc1OC(F)F)c1cc2c(s1)CCC2	4%	-11	11	-2	-1.4
Cc1ccc(OCC(=O)N(Cc2ccco2)C2CCS(=O)(=O)C2)cc1C (configuration not stated)	nt	nt	-5	nt	-4.0
O=C(c1cc(-c2ccc(O)cc2)on1)N1CCCC1	nt	nt	-1	nt	-6.2
O=C(Cn1cnc2ccccc21)N1CCc2ccccc21	-6%	nt	4	-2	0.4
CC1CN(C(=S)NC(=O)c2ccco2)CC(C)O1 (configuration not stated)	-9%	-18	1	0	-1.7
C=CCOc1c(CNc2ncn[nH]2)cccc1OC	-4%	12	-4	4	1.1
CSC1=NP(=S)(SC)N(C)c2nc3n(c21)CCC3 (configuration not stated)	-3%	-49	-5	-6	-0.1
N#Cc1ccc(-c2csc(NC(=O)c3ccc(N4C(=O)CCC4=O)cc3)n2)cc1	0%	nt	-1	nt	-9.3
O=C(NCCCn1ccnc1)C(=O)c1cn(CC(=O)N2CCCCCC2)c2ccccc12	nt	nt	1	5	-5.8
CC(=O)Nc1ccc(C2CN(C)CC2C(=O)c2ccc(Cl)cc2)cc1 (configuration not stated)	0%	nt	-1	-1	-0.3
Cc1cccc(CN2C(=O)[C@@H]3Cc4c([nH]c5ccccc45)C(C)(C)N3C2=O)c1	8.7µM*	nt	86	nt	3.1
O=C(CN1C(=O)NC(c2ccccc2)(c2ccccc2)C1=O)NCCNCCO	nt	nt	-5	nt	0.6
N#Cc1ccc(CSc2ncccn2)cc1	nt	nt	7	nt	-0.3
CCOC(=O)c1c(-c2cccc(C)c2)csc1NC(=O)C1CC=CCC1C(=O)O (configuration not stated)	-7%	-21	-4	12	2.8
COc1ccc(CC(=O)N(C)C2CCCN(Cc3ccccc3F)C2)cc1OC (configuration not stated)	nt	nt	7	nt	-1.6
Cc1ccc(N(CC(=O)NC(C)C)C(=O)CCC(=O)Nc2ccccn2)cc1	nt	nt	-3	nt	-0.2
Cc1ccc2nc(C)cc(C(=O)Nc3nccs3)c2c1	1%	nt	30	1	-0.7
CCC/C(=N\NC(=O)c1cccc(C)c1)c1ccccc1	-16%	-24	11	-3	-1.2
Cc1ccc(N2C(=O)CC(N3CCSCC3)C2=O)c(C)c1 (configuration not stated)	-5%	nt	-11	nt	-2.4
COC(=O)c1cc(N2C(=O)C3C4C=CC(CC4)C3C2=O)ccc1Cl (configuration not stated)	nt	nt	-13	nt	-0.2
COc1cc(C)nc(SCC(N)=O)n1	11%	17	-3	4	0.6
O=C(NCc1ccco1)/C(=C/c1ccc(C(F)(F)F)cc1)c1nc2ccccc2[nH]1	2%	-39	-1	0	13
Cc1cc(C)nc(SCCC(=O)Nc2cccc3ccccc23)n1	-15%	-18	5	-2	-5.1
C=CCC1c2cccc(C(=O)O)c2C(=O)N1c1cccc(OC)c1 (configuration not stated)	-9%	nt	-6	-5	-1.8
CCN(CC)CC(=O)Nc1cc(N(C)C)nc2ccccc12	-9%	nt	-10	nt	0.2
Cc1cc(C)c(NC(=O)NC2CCCCC2)c(C)c1	-2%	-25	0	4	1.3
COc1ccc(N2CCN(C(C)C(=O)N3CCc4ccccc43)CC2)cc1 (configuration not stated)	nt	nt	3	nt	-3.4
CC(=O)N1CCN(CC(=O)NC(=O)Nc2ccc3c(c2)OCCO3)CC1	nt	nt	0	nt	-0.5
CC1CCCCC12NC(=O)N(CC(=O)NC1CCCc3ccccc31)C2=O (configuration not stated)	-11%	-31	57	4	-2.6
Cc1nc2ccccn2c1C(=O)N=Nc1c(O)[nH]c2ccccc12	-2%	-17	5	-5	1.9
O=C(NCCN1CCN(C(=O)c2cccs2)CC1)C(=O)Nc1ccc(Br)cc1	-2%	10	5	0	-0.8

For reference, part of the list above.
SMILES	Mtb growth	YopH inh	Mtb betalactam	Arbovirus inh	RecA splice inh	others
C=CCC1c2cccc(C(=O)O)c2C(=O)N1c1cccc(OC)c1 (configuration not stated)	-9%	nt	-6	-5	-1.8
CCN(CC)CC(=O)Nc1cc(N(C)C)nc2ccccc12	-9%	nt	-10	nt	0.2
Cc1cc(C)c(NC(=O)NC2CCCCC2)c(C)c1	-2%	-25	0	4	1.3
COc1ccc(N2CCN(C(C)C(=O)N3CCc4ccccc43)CC2)cc1 (configuration not stated)	nt	nt	3	nt	-3.4
CC(=O)N1CCN(CC(=O)NC(=O)Nc2ccc3c(c2)OCCO3)CC1	nt	nt	0	nt	-0.5

Additional structures
SMILES	Mtb growth	YopH inh	Mtb betalactam	Arbovirus inh	RecA splice inh	others
COc1ccc(CNC(=O)C(NS(=O)(=O)c2cccc3nsnc23)C(C)C)cc1 (configuration not stated)	nt	nt	-2	nt	4.2
Cc1ncc([N+](=O)[O-])n1CC(=O)Nc1cc(Cl)ccc1Cl	nt	nt	5	nt	0.1
COc1ccc(OCCCC(=O)NCCc2nc3ccccc3[nH]2)cc1	-6%	nt	-3	-1	4.8
O=C(NC(NCc1ccccn1)(C(F)(F)F)C(F)(F)F)c1ccco1	3%	-13	-15	-3	-2.5
COc1ccc2cc(S(=O)(=O)NCCCN3CCOCC3)ccc2c1	-6%	3	1	8	1.1
CCCCc1nc(C(N)=O)c2[nH]c(=O)n(-c3ccc(OC)c(OC)c3)c2n1	nt	nt	?	nt	1.6
CCCCc1sc(-c2c(C#N)c(N)nc3c2CCCCC3)cc1[N+](=O)[O-]	1%	-20	7	-1	-0.4
Cc1cc(C(=O)NNc2cc(Cl)ccc2Cl)no1	67%	nt	97	nt	-1.5
COC(=O)COc1cccc(NS(=O)(=O)c2cccc([N+](=O)[O-])c2)c1	4%	nt	6	-3	-1.9
CCCc1c(O)nc(SCC(=O)NCCc2ccc(OC)c(OC)c2)[nH]c1=O	-4%	-225	-3	-2	-4.7
Cc1cc(=O)[nH]c(N/N=C/c2c[nH]c3ccccc23)n1	8%	nt	4	nt	nt
O=C(O)CCC(=O)N1CCN(c2nc(-c3ccccc3Cl)c3cc(Br)ccc3n2)CC1	-3%	-36	9	-4	-20
CSCCC(NC(=O)c1ccccc1Cl)C(=O)NNC(=O)c1csc(N2CCOCC2)n1 (configuration not stated)	nt	nt	-7	nt	-2.6
COc1ccc(NC(=O)C2CCCCN2N)cc1OCC(C)C (configuration not stated)	1%	-29	9	-8	0.2
CC1=CC(C)(C)N(C(=O)CCl)c2ccccc21	7%	nt	79	-5	0.3
Cc1ccccc1NCc1ccc([N+](=O)[O-])s1	nt	nt	0	nt	1.6
CC(C)Oc1ccc(CNC(=O)Oc2ccccc2)cc1	nt	nt	4	nt	-2.1
CC(=O)Nc1nnc(SCC(=O)Nc2ccc(N3CCOCC3)c(Cl)c2)s1	-3%	nt	-11	nt	2.3
N/C(=N\OC(=O)c1ccc(=O)n(Cc2ccc(Cl)cc2)c1)c1ccccn1	-1%	nt	45	1	0.9
CCN(CC)C(=O)CSc1ncccc1-c1nc2ccccc2[nH]1	-6%	nt	-6	-8	-1.1
O=C1C2C3CCCC3=C3CCCC3C2C(=O)N1c1ccc(F)cc1 (configuration not stated)	2%	-29	3	2	nt
O=c1[nH]c(CN2CCN(S(=O)(=O)c3ccc4ccccc4c3)CC2)nc2ccccc12	-7%	nt	2	-5	-1.0
Cc1ccc(N2CC(NC(=O)N3CCN(C(=O)c4ccco4)CC3)CC2=O)cc1 (configuration not stated)	nt	nt	-9	nt	-3.0
NC(=O)C1CCN(CC(=O)Nc2ccccn2)CC1	-5%	-10	-5	2	2.1
Nc1c(Cl)cc2c(c1Oc1ccccc1)C(=O)c1ccccc1C2=O	15%	-7	-1	-14	nt
CC1CCN(C(=O)CSc2nc3ccccc3c(=O)[nH]2)CC1	-7%	nt	31	1	-0.2
O=C(Nc1nnc(-c2ccccc2)o1)c1nc2ccccc2s1	6.1µM*	nt	95	-7	-1.6	Arbovirus inh repeat=-5
O=C(NCc1ccc2c(c1)OCO2)c1ccc(Br)o1	nt	nt	8	nt	1.5
COc1cc(CCC(=O)OCC(=O)Nc2ccc3c(c2)OCO3)cc(OC)c1OC	nt	nt	-1	nt	1.7
CCOC(=O)c1c(C)nc2c3ccccc3ccn12	-1%	-8	11	4	1.6
O=S(=O)(c1ccccc1)c1nc(-c2ccccc2)oc1N1CCCC1	0%	nt	-5	-9	15
CC(=O)Nc1ccc(S(=O)(=O)N2CCN(CCc3ccccc3)CC2)cc1	nt	nt	-1	nt	-3.1
O=C(O)C12CC3CC(C1)CC(n1ncc(N4CCN(c5ccccc5)CC4)c(Cl)c1=O)(C3)C2	-4%	-22	0	1	-2.6
O=C(COC(=O)C1CCN(S(=O)(=O)c2cccs2)CC1)Nc1ccccc1	-3%	nt	2	4	4.6
COc1ccc(C2=CC(=O)OC3(CCCCC3)O2)cc1	3%	-19	81	-8	3.3
O=C1CSc2ccc(S(=O)(=O)NCc3ccc(F)cc3)cc2N1	nt	nt	3	nt	-0.7
COc1ccc(C(CNC(=O)c2cccc(N(C)C)c2)N2CCCC2)cc1 (configuration not stated)	9%	2	-1	-7	-1.1
O=C(/C=C/c1cccc(Cl)c1)NCc1ccncc1	7%	-3	-5	4	-1.2
C=CCN1C2CCCC1CC(NC(=O)Nc1cccc(C(C)=O)c1)C2 (configuration not stated)	0%	-52	-9	2	0.2
CN(C)CCN(C(=O)c1cccc(N2C(=O)CCC2=O)c1)c1nc2ccc(Br)cc2s1	nt	nt	0	nt	-0.9
CC(=O)Nc1ccc(C(=O)OCCC(C)C)cc1	-3%	-38	-16	0	4.0
CC(C)[C@H]1C(=O)O[C@@H]2CCN3CC=C(COC(=O)[C@](C)(O)[C@]1(C)O)[C@H]23	nt	nt	-2	nt	0.5
O=C(COC(=O)c1ccc(Cl)nc1)Nc1cc(S(=O)(=O)N2CCCCC2)ccc1Cl	-1%	nt	1	11	3.0
COc1cccc(NS(=O)(=O)c2cc3[nH]c(=O)c(=O)[nH]c3cc2C)c1	nt	nt	3	nt	-0.9
Cc1c(Br)c(C(=O)NNC(=O)c2ccc(C(C)(C)C)cc2)nn1C	-3%	nt	1	nt	0.0
COc1ccc2c(c1)[nH]c1c(N3CCSCC3)ncnc12	5%	nt	-5	nt	-0.1
Cc1cccn2c(=O)c3cc(C(=O)NCCc4ccccc4)sc3nc12	nt	nt	2	nt	-15
COC(=O)CNC(=O)C(Cc1ccccc1)NS(=O)(=O)c1ccc2c(c1)c(=O)n(C)c(=O)n2C (configuration not stated)	-6%	nt	5	-2	0.4
CCOC(=O)C1=C(C)NC(C)=C(C(=O)OCC)C1C(=O)OCC(N)=O	1%	nt	0	3	-3.9
Oc1ccccc1-c1cc(-c2ccccc2)no1	7%	-36	7	7	3.6
Cn1cnnc1SCC(=O)Nc1ccc(Cl)cc1	nt	nt	5	nt	1.4
CC(NC(=O)c1ccco1)c1cccc2ccccc12 (configuration not stated)	-4%	6	-1	-12	0.0
c1ccc(Nc2nc(-c3ccccc3)nc3ccccc23)cc1	nt	nt	19	nt	6.8
Cc1ccsc1C(=O)NNC(=O)C1CC=CCC1C(=O)O (configuration not stated)	-3%	-16	3	24	-4.6
Cc1noc(C)c1S(=O)(=O)Nc1ccc(C(C)C)cc1	nt	nt	98	nt	-3.7
CCC(C)N(C(=O)CSc1ncnc2c1cnn2-c1ccccc1)C1CCS(=O)(=O)C1 (configuration not stated)	nt	nt	-8	nt	-1.9
CC(C)Cc1nc(N2CCCCC2)c(C#N)c2c1CCC2	-13%	-55	9	-8	11
Cc1c(C(=O)N2CCCC2)oc2ccc(Br)cc12	nt	nt	-3	nt	2.9
CC(=O)Nc1ccc(S(=O)(=O)Nc2cc([N+](=O)[O-])ccc2C)cc1	-7%	nt	4	-4	-4.4
